ALR inh = inhibitors of human ALR sulfhydryl oxidase, primary screen, biochemical, H2O2 detection, HRP-luminol luminescence, single point; purified ALR, DTT oxidation; inhibition, % (concentration not given with the values); 3.8% of 290,000 active;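 active = mean and each replicate at 75% or more; inconclusive = only one of the two met; inactive = neither met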;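 also: stock transfer was 7.5 nL into about 7.5 µL; 0% = neutral wells and 100% = wells with inactivated enzyme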
Calb FLC = C. albicans growth inhibition with fluconazole, primary screen, CaCi-2 strain, Alamar Blue fluorescence; C. albicans CaCi-2 (fluconazole-resistant clinical isolate) + fluconazole, 48 h; growth inhibition, % (test concentration not listed); 0.57% of 300,000 active;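 active = most replicates above 75%; inconclusive = exactly half above 75%; inactive = most below 75%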;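 also: all wells also contain fluconazole at 8 µg/ml as a sub-toxic cotreatment; 0% = median of DMSO wells and 100% = median of geldanamycin control wells; wells of about 8 µL received 7.5 nL stock; the first replicate is given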
B2AR ag = beta2AR agonists driving receptor internalization, primary screen, cell-based, FAP fluorogen, flow cytometry; Am2.2-beta2AR cells; reference of the scale not given here; response, % (test concentration not listed); 0.43% of 340,000 active;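 active = response above a set limit, near 3 SD of response in nonfluorescent compounds, cut at about 42% in these data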;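 also: stock transfer was 100 nL into about 11 µL; a reference agonist was the positive control; negative values mostly stem from fluorescent compounds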
Target sequence (P07550 whole entry, looked up): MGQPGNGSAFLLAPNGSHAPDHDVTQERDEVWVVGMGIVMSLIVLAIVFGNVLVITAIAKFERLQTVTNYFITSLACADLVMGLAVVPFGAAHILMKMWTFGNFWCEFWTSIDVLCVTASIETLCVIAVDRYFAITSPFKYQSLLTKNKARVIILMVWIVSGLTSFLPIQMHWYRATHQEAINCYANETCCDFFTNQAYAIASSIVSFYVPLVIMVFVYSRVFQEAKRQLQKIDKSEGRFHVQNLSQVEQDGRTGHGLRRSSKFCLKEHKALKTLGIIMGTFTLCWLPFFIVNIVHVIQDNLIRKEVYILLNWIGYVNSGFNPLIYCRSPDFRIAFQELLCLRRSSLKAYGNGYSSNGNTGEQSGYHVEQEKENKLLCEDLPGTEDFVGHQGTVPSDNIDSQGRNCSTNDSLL
Vif A3G = inhibitors of Vif binding to APOBEC3G peptide, primary screen, biochemical, TR-FRET, GST-Vif 1-94, biotin-A3G peptide, dose response retest (AID 1117319); TR-FRET GST-Vif / biotin-A3G peptide binding; higher % means a stronger effect; test concentration not given here; strong numbers were not always called active; inhibition, %; hits with a dose series show IC50 in µM; 0.57% of 260,000 active;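 active = above the screen mean plus three standard deviations and confirmed in dose response; inconclusive = results disagree or hit not tested in dose response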;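 also: Vif residues 1-94 fused to GST binding biotinylated APOBEC3G peptide 110-148; 0% = full assay without inhibitor and 100% = GST in place of GST-Vif; retest series ran down from 100 µM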
LANA-H2B inh = blockers of LANA interaction with H2A/H2B – biochemical, FP readout, HTS, primary screen | 0.6% of 320,000 active | AID 2629, 2010 | Protein LANA1 (Human herpesvirus 8 type P (isolate GK18)), Q9QR71 | cell-free LANA-H2A/H2B peptide, fluorescence polarization | inhibition, % (test concentration not listed); in the data active = inhibition mostly above about 10%, no sharp cut-off; inactive = mostly below about 6.7%;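 also: stock transfer was 7.5 nL into about 10 µL; 0% = median of vehicle wells and 100% = median of positive control wells; one replicate is shown; the record names a cut of 25% in any replicate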
HNF4A DNA FP = change in binding of human HNF4A to DNA, primary screen, biochemical, fluorescence polarization, FITC-DNA. Hepatocyte nuclear factor 4-alpha (Homo sapiens), P41235. 1 h. activity change, % at 10 µM. 0.3% of 360,000 active. AID 1224865, 2016; in the data active = activity change above about 30%, passing the limit was not always enough;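 also: controls were the assay level and a saturating level of protein; the project sought stronger binding though the title names inhibitors; some compounds called inactive have numbers as strong as hits; positive values seem to mean higher polarization but the record does not say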
Target sequence (P41235 whole entry, looked up): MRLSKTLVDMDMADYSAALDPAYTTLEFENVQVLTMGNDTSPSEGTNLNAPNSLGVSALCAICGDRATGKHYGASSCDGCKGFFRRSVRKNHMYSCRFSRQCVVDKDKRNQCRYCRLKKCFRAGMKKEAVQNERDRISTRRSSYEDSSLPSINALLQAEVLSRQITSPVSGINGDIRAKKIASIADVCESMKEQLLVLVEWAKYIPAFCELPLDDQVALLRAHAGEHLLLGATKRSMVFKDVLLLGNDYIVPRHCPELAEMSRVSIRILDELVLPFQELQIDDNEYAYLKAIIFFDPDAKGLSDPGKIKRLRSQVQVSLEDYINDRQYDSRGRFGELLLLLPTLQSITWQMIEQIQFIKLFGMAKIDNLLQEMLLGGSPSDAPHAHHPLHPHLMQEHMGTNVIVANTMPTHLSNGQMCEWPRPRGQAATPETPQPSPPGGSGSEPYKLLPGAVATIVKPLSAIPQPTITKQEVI
RanGTP-Impb inh = inhibitors of RanGTP-importin-beta interaction, primary screen, biochemical, FRET, CFP-Ran, YFP-importin-beta, homogeneous; AID 2216, 2009; inhibition, % (test concentration not listed); Ran GTPase (GTP-bound) - importin-beta complex; cell-free CFP-Ran/YFP-importin-beta FRET ratio; 1.1% of 300,000 active;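 active = most replicates above 15%; inconclusive = exactly half above 15%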;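 also: 0% = DMSO wells and 100% = Ran loaded with GDP instead of GTP; wells of about 40 µL received 100 nL stock; the first replicate is given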
Numbers without * were called inactive.

What do the screens show for `Cc1c(OC(C)C(=O)NCCN2CCOCC2)ccc2c3c(c(=O)oc12)CCC3` (centres undefined)?
ALR inh: -2; Calb FLC: -4; B2AR ag: -2; LANA-H2B inh: 1.2; HNF4A DNA FP: 2.2; RanGTP-Impb inh: 1.1

What do the screens show for `N/C(=N\OC(=O)c1ccc(Cl)cc1Cl)c1cccnc1`?
ALR inh: 6; Calb FLC: 8; B2AR ag: -8; LANA-H2B inh: 5.1; HNF4A DNA FP: -2.1; RanGTP-Impb inh: inconclusive

How did CCCn1cc(S(=O)(=O)c2ccc(C)cc2)c(=O)c2cc(OC)c(OC)cc21 do in these assays?
ALR inh: -3; Calb FLC: 1; B2AR ag: 5; Vif A3G: -1%; LANA-H2B inh: 4.8; HNF4A DNA FP: -0.7; RanGTP-Impb inh: -1.5

How did Cc1ccc(NC(=O)CN2C(=O)NC(C)(CC(C)C)C2=O)c(Br)c1 (centres undefined) do in these assays?
ALR inh: -2; B2AR ag: 4; Vif A3G: -9%; LANA-H2B inh: 1.1; HNF4A DNA FP: -1.3

What do the screens show for `CCN1CCCC1CNC(=O)c1cn(CC)c2ccc(S(=O)(=O)N3CCCCCC3)cc2c1=O` (centres undefined)?
ALR inh: -14; Calb FLC: -5; Vif A3G: 29%; LANA-H2B inh: -2.2; RanGTP-Impb inh: inconclusive

How did C/C(=N/Oc1nc(C)cc(C)n1)c1ccccc1 do in these assays?
ALR inh: 3; Calb FLC: 6; B2AR ag: 1; Vif A3G: 2%; LANA-H2B inh: -6.0; HNF4A DNA FP: -3.5; RanGTP-Impb inh: 0.4

How did CCS(=O)(=O)NCCc1cc2ccc(C)cc2[nH]c1=O do in these assays?
Calb FLC: -18; B2AR ag: 2; Vif A3G: -1%; LANA-H2B inh: 5.4; HNF4A DNA FP: 2.7; RanGTP-Impb inh: 0.1

What do the screens show for `Cc1ccc(C(=O)COC(=O)CNS(=O)(=O)c2ccc(C)cc2)cc1`?
ALR inh: -2; Calb FLC: 2; B2AR ag: 3; LANA-H2B inh: 1.5; HNF4A DNA FP: 0.1; RanGTP-Impb inh: 0.9

Results for O=C(Cn1cc2c(n1)CCCCC2)NCCCN1CCOCC1 ?
ALR inh: -18; Calb FLC: -6; B2AR ag: -1; Vif A3G: 18%; LANA-H2B inh: 5.8; HNF4A DNA FP: -3.5; RanGTP-Impb inh: 5.5

Results for COc1ccccc1C(=O)Nc1ccnn1C1CCN(CCC(C)c2ccc(C)o2)CC1 (centres undefined) ?
ALR inh: 9; Calb FLC: 1; B2AR ag: -2; Vif A3G: -4%; LANA-H2B inh: -0.5; HNF4A DNA FP: -1.2; RanGTP-Impb inh: 1.5

How did CCCCCC(=O)N1CC2(C)CN(C(=O)CCCCC)CC(C)(C1)C2=O do in these assays?
ALR inh: -2; Calb FLC: 1; B2AR ag: 2; Vif A3G: 4%; LANA-H2B inh: -3.5; HNF4A DNA FP: 0.7; RanGTP-Impb inh: -0.2

Results for CC(Oc1ccc2ccccc2c1)C(=O)NNC(=O)Nc1ccccc1F (centres undefined) ?
ALR inh: 1; Calb FLC: -12; B2AR ag: -1; LANA-H2B inh: 0.4; HNF4A DNA FP: -0.2; RanGTP-Impb inh: -2.3

How did Cc1cc(NC(=O)c2c(F)cccc2Cl)n(-c2nc3ccccc3[nH]2)n1 do in these assays?
ALR inh: 2; Calb FLC: 109*; B2AR ag: 5; Vif A3G: 22%; LANA-H2B inh: -2.1; HNF4A DNA FP: -0.5; RanGTP-Impb inh: -1.7

What do the screens show for `Nn1c(SCC(=O)N2CCCCCC2)nnc1-c1ccco1`?
ALR inh: 4; B2AR ag: -9; Vif A3G: 29%; LANA-H2B inh: 12; HNF4A DNA FP: -0.3

How did O=C(CCCOC(=O)c1ccc(O)cc1O)c1ccc(Br)cc1 do in these assays?
B2AR ag: -3; Vif A3G: 9%; HNF4A DNA FP: -1.4

What do the screens show for `CCOC(=O)Cc1csc(NC(=O)/C=C/c2ccccc2Cl)n1`?
ALR inh: -2; Calb FLC: -7; B2AR ag: 15; Vif A3G: 2%; LANA-H2B inh: -3.8; HNF4A DNA FP: 14; RanGTP-Impb inh: 3.6

Results for COc1cccc(Cn2c(=O)sc3ccccc3c2=O)c1 ?
ALR inh: -3; Calb FLC: 30; B2AR ag: -4; LANA-H2B inh: -1.7; HNF4A DNA FP: -0.2; RanGTP-Impb inh: 5.1

What do the screens show for `Cc1nnc(NC(=O)C23CC4CC(C)(CC(C)(C4)C2)C3)s1`?
Calb FLC: 4; B2AR ag: -8; LANA-H2B inh: 1.0; HNF4A DNA FP: 1.5; RanGTP-Impb inh: 2.9

What do the screens show for `CCN1CCN(S(=O)(=O)c2ccc(Cl)c(C(=O)NC3CCCCC3)c2)CC1`?
ALR inh: 17; Calb FLC: -7; B2AR ag: -6; Vif A3G: -6%; LANA-H2B inh: 4.3; HNF4A DNA FP: 4.7; RanGTP-Impb inh: 3.5

How did O=C(c1ccccc1)c1cc(F)c(N2CCOCC2)cc1Cl do in these assays?
ALR inh: -3; Calb FLC: -2; B2AR ag: -2; Vif A3G: 1%; LANA-H2B inh: -4.3; HNF4A DNA FP: 1.3; RanGTP-Impb inh: 2.3

What do the screens show for `C=CCOc1ccc(Cl)cc1CNC1CCCC1`?
ALR inh: -23; Calb FLC: -22; B2AR ag: 1; Vif A3G: -8%; LANA-H2B inh: 1.0; HNF4A DNA FP: 0.0; RanGTP-Impb inh: -0.5

What do the screens show for `O=S(=O)(NCc1cccnc1)c1ccc(Cl)c(Cl)c1Cl`?
ALR inh: -2; Calb FLC: 17; B2AR ag: -4; Vif A3G: 11%; LANA-H2B inh: 0.0; HNF4A DNA FP: -3.0; RanGTP-Impb inh: 3.5

What do the screens show for `CCN1CCN(Cc2c(C)[nH]c3ccc(C(=O)OC)cc3c2=O)CC1`?
ALR inh: -3; Calb FLC: 4; B2AR ag: 3; Vif A3G: -6%; LANA-H2B inh: -0.4; HNF4A DNA FP: 1.7; RanGTP-Impb inh: 3.0

How did CCOc1ccccc1N1CCN(C(=O)c2cc3c(s2)CCC3)CC1 do in these assays?
ALR inh: 41; Calb FLC: 22; B2AR ag: 0; Vif A3G: 2%; LANA-H2B inh: 1.2; HNF4A DNA FP: -4.7; RanGTP-Impb inh: 5.8

What do the screens show for `CCc1ccccc1Nc1nc2ccccc2n1C(C)C`?
ALR inh: -1; Calb FLC: -4; B2AR ag: -12; LANA-H2B inh: -3.2; HNF4A DNA FP: 1.8; RanGTP-Impb inh: 4.7

Results for CNS(=O)(=O)c1cn(CC(=O)NCc2ccc(F)cc2)cc1S(=O)(=O)NC ?
ALR inh: -6; Calb FLC: -2; B2AR ag: 3; Vif A3G: -12%; LANA-H2B inh: 2.4; HNF4A DNA FP: -1.4; RanGTP-Impb inh: -0.1

Results for CC(=O)NNc1cccc(Cl)n1 ?
ALR inh: -2; Calb FLC: 1; B2AR ag: 3; Vif A3G: -2%; LANA-H2B inh: 3.2; HNF4A DNA FP: 4.2; RanGTP-Impb inh: 1.2

What do the screens show for `Cc1cc2nc(-c3ccc(SCC(=O)N4CCOCC4)nc3)[nH]c2cc1C`?
ALR inh: inconclusive; Calb FLC: inconclusive; B2AR ag: 17; Vif A3G: -5%; LANA-H2B inh: -2.7; HNF4A DNA FP: 1.6; RanGTP-Impb inh: inconclusive

Results for COc1cc(C(CC(=O)Nc2ncccc2C)N2Cc3ccccc3C2=O)cc(OC)c1OC (centres undefined) ?
ALR inh: -2; Calb FLC: -5; B2AR ag: -12; Vif A3G: -3%; LANA-H2B inh: 0.5; HNF4A DNA FP: 4.8; RanGTP-Impb inh: -0.2

How did Cc1ccc(NC2(C#N)C(=O)Nc3ccccc32)cc1C (centres undefined) do in these assays?
ALR inh: 8; Calb FLC: 2; B2AR ag: -1; Vif A3G: 4%; LANA-H2B inh: -2.4; HNF4A DNA FP: -4.1; RanGTP-Impb inh: 0.1

Results for Cc1ccc(S(=O)(=O)N2CCOCC2)cc1NC(=O)COC(=O)c1cncc(Br)c1 ?
ALR inh: -17; B2AR ag: -5; LANA-H2B inh: 1.1; HNF4A DNA FP: -3.3

How did CCOc1ccc(N2CC(C(=O)NC(C)C)CC2=O)cc1 (centres undefined) do in these assays?
ALR inh: -3; Calb FLC: 19; B2AR ag: 15; Vif A3G: -3%; LANA-H2B inh: -2.9; HNF4A DNA FP: -0.4; RanGTP-Impb inh: 5.1

How did COc1ccccc1C/C(N)=N/OC(=O)c1ccco1 do in these assays?
ALR inh: -6; Calb FLC: 1; B2AR ag: 3; Vif A3G: 6%; LANA-H2B inh: -5.9; HNF4A DNA FP: 1.9; RanGTP-Impb inh: 0.9

What do the screens show for `COc1cc(OC)cc(-c2c(C#Cc3ccsc3)c3cc(-c4cccc5[nH]cc(C=O)c45)ccc3n2C)c1`?
ALR inh: -2; B2AR ag: 8; LANA-H2B inh: -1.3; HNF4A DNA FP: 6.8

Results for COc1ccc(NC(=O)CN(C)CC(=O)Nc2ccc(Cl)c(S(=O)(=O)N(C)C)c2)cc1 ?
ALR inh: -15; Calb FLC: 2; B2AR ag: -3; Vif A3G: 3%; LANA-H2B inh: -0.4; HNF4A DNA FP: -0.9; RanGTP-Impb inh: -0.2

What do the screens show for `COc1ccc(CNC(=O)C2CC(c3ccc(C(F)(F)F)cc3)=NO2)cc1` (centres undefined)?
Calb FLC: -9; B2AR ag: -2; Vif A3G: 27%; LANA-H2B inh: -1.5; HNF4A DNA FP: 4.3; RanGTP-Impb inh: -0.7

How did Cc1cc(C)c(S(=O)(=O)c2ccc(Cl)cc2)c(Cl)n1 do in these assays?
ALR inh: 2; Calb FLC: 25; B2AR ag: 1; Vif A3G: -3%; LANA-H2B inh: 6.8; HNF4A DNA FP: -1.6; RanGTP-Impb inh: -4.0

What do the screens show for `CNC(=S)N/N=C/c1cn(Cc2ccc(F)cc2)c2ccccc12`?
ALR inh: -9; Calb FLC: 2; B2AR ag: 2; LANA-H2B inh: -4.4; HNF4A DNA FP: 0.9; RanGTP-Impb inh: 11

Results for CCN(CCn1cccn1)C(=O)c1ccc2nc(Cc3ccc(OC)cc3)oc2c1 ?
ALR inh: 3; Calb FLC: -4; B2AR ag: -5; LANA-H2B inh: -0.4; HNF4A DNA FP: -3.9; RanGTP-Impb inh: -0.7

Results for CCCCN(C)C(=O)c1ccc2c(c1)S(=O)(=O)c1ccccc1C2=O ?
ALR inh: -6; Calb FLC: 22; B2AR ag: -11; LANA-H2B inh: -4.1; HNF4A DNA FP: 4.6; RanGTP-Impb inh: -0.3

High-throughput results from PubChem BioAssay.
